Compound activity deposited in PubChem BioAssay by National Center for Advancing Translational Sciences (NCATS).
TRPML1 inh = qHTS for Inhibitors of the Human Mucolipin Transient Receptor Potential 1 (TRPML1); Mucolipin-1 (Homo sapiens), Q9GZU1; TRPML1-inducible cells, Ca2+ dye fluorescence, FDSS; stronger effect = lower value; inhibition of EC80 agonist-evoked calcium signal; activity change, negative = inhibition, % (no concentration beside the values); 390,000 tested, 0.02% active; in the data active means activity change below about -50%; inconclusive means about -30% to -50%; inactive means above about -30%;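 note: stimulus is agonist 54-4 at its EC80 concentration; % is set by controls: 0 for no effect and ±100 for the full control effect; compound concentration not given in the record; the text of the record puts the active cut at -80%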
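Calcium fluorescence in TRPML1-DL cells induced overnight with Tet: a 110 s read after compound pin addition, then a 110 s antagonist read after challenge with 54-4 at 4 uM final (EC80).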
TRPV1 potentiator = HTS Assay for Compounds that Act as Potentiators of the Vanilloid Receptor 1; Transient receptor potential cation channel subfamily V member 1 (Homo sapiens), Q8NER1; TRPV1-expressing cells, Fluo-8 calcium influx, capsaicin EC20 potentiation; host cell line not named in the record; control for the full effect not named in the record; potentiation, % at 8.33 µM; 320,000 tested, 0.02% active; AID 540277, 2011; active means potentiation above 80%; inconclusive means 30% to 80%; inactive means below 30%; note: 0% is about no effect
Target sequence (Q8NER1 whole entry, looked up): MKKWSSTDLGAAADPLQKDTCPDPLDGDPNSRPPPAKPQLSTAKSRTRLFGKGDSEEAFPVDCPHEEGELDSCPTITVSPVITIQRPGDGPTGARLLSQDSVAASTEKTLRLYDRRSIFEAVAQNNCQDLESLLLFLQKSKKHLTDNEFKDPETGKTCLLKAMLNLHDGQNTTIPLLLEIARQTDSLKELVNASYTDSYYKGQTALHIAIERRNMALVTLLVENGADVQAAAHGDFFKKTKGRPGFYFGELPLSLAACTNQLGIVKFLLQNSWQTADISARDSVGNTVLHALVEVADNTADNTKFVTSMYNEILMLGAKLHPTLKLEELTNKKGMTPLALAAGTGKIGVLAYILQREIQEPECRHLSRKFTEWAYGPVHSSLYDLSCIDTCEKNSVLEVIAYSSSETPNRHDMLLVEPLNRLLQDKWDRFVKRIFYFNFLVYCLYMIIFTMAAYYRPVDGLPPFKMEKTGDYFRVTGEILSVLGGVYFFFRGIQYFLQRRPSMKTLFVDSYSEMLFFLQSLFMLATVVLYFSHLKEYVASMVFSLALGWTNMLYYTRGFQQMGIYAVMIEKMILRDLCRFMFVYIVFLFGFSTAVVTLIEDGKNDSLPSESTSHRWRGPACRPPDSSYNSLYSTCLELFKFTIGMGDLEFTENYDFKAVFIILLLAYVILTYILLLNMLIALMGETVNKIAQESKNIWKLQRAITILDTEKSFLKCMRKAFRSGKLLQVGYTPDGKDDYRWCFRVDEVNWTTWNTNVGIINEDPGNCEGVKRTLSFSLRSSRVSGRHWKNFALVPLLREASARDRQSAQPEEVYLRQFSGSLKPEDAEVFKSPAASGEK
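Fluo-8 calcium influx in TRPV1-expressing cells, kinetic read (ex 480/em 520 nm). Compound added and read 3 min for agonist activity, followed by capsaicin at EC20 final and 2 min further read for enhancement.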
D2 potentiator = Beta-Arrestin HTS for Positive Allosteric Modulators of the Human D2 Dopamine Receptor: Potentiators | 360,000 tested, 0.23% active | DiscoveRx D2 beta-arrestin cells, luminescence, 90 min; 100% = 57 uM dopamine signal | AID 624464, 2012 | potentiation, % (concentration not given with the values) | D(2) dopamine receptor (Homo sapiens), P14416; active = potentiation of 50% or more; inconclusive = 30% to 50%; inactive = 30% or less;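 note: compound concentration not given in the record; tested on top of an EC20 dose of dopamine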
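PathHunter D2 cells, attached overnight at 37 deg C, received compound in DMSO plus dopamine at EC20 (50 nM final) for 90 min at 37 deg C. Beta-arrestin recruitment was read as luminescence after 1 h with detection reagent at ambient temperature.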
Six1-Eya2 blk = qHTS Assay for Inhibitors of the Six1/Eya2 Interaction | Homeobox protein SIX1 (Homo sapiens) + Protein phosphatase EYA2 (Homo sapiens), … | AlphaScreen GST-Six1/His-Eya2 binding, biochemical; stronger effect = lower value; control for the full effect not named in the record | activity change, % (no concentration beside the values) | 360,000 tested, 0.56% active | AID 651725, 2012; in the data active = activity change below about -65%; inconclusive = about -30% to -65%; inactive = above about -30%; note: % is set by controls: 0 for no effect and ±100 for the full control effect; compound concentration not given in the record
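Homogeneous AlphaScreen proximity assay pairing GST-Six1 with His-tagged Eya2 (added as 5X mix: 250 nM and 500 nM) in 50 mM Tris pH 8.0, 300 mM NaCl, 1 mM TCEP. Glutathione donor and nickel acceptor beads; 1 h, 37 °C, dark.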
TRPML1 agonist = qHTS for Agonists of the Human Mucolipin Transient Receptor Potential 1 (TRPML1); Mucolipin-1 (Homo sapiens), Q9GZU1; TRPML1-expressing cells, Ca2+ dye fluorescence, FDSS; host cell line not named in the record; reference of the full effect not given here; activation, % (no concentration beside the values); 410,000 tested, 0.12% active; AID 624414, 2012; in the data active = activation above about 50%; inconclusive = about 30% to 50%; inactive = below about 30%; note: 0% is about no effect; the text of the record puts the active cut at 80%
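Calcium fluorescence on an FDSS kinetic reader gave the read-out. Tet-induced TRPML1-DL cells were plated overnight, dye-loaded (Ca8 with quencher, 45-90 min, room temperature, dark), then read 110 s after compound addition, and again 110 s after 4uM final 54-4 (EC80).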
CtBP-E1A inh = qHTS Assay for Inhibitors of the CtBP/E1A Interaction. CtBP / adenovirus E1A interaction (AlphaScreen). AlphaScreen GST-E1A/His-CtBP binding, 1536-well; stronger effect = lower value; control for the full effect not named in the record. activity change, % (concentration not given with the values). 340,000 tested, 0.49% active. AID 651724, 2012; in the data active means activity change below about -65%; inconclusive means about -30% to -65%; inactive means above about -30%; note: % is set by controls: 0 for no effect and ±100 for the full control effect
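Steps: dispense buffer (Tris pH 8.0, NaCl 300 mM, TCEP 1 mM, BSA, Tween 20); add 5X protein mix (GST-E1A, His-CtBP, 125 nM each); pin 23 nL compound; 2 h at 37 °C, dark; add 5X beads (50 ug/mL); 1 h; read.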
The depositor's hits bear a star. The order is random. About 0.95% of those tested had a hit in this group.

For CC(NC(=O)COc1cc(=O)n(C)c2ccccc12)c1ccc2c(c1)OCCO2 (centres undefined) the results were TRPML1 inh -17, TRPV1 potentiator 2, D2 potentiator 4, Six1-Eya2 blk 2, TRPML1 agonist -0.3 and CtBP-E1A inh 6.
`Cc1ccccc1C(=O)NC1CCN(Cc2nnnn2C(C)(C)C)CC1` gave TRPML1 inh 3, TRPV1 potentiator 20, D2 potentiator -8, Six1-Eya2 blk 8, TRPML1 agonist 2.9 and CtBP-E1A inh -2.
Screening COC(=O)c1ccccc1NC(=O)NC1CC1 returned TRPML1 inh 2, TRPV1 potentiator 0, D2 potentiator -4, Six1-Eya2 blk 6 and TRPML1 agonist 0.3.
Screening O=c1c2cc(Br)ccc2nc(-c2cccc(C(F)(F)F)c2)n1O returned TRPML1 inh 3, TRPV1 potentiator -11, D2 potentiator 4, Six1-Eya2 blk -9, TRPML1 agonist inconclusive and CtBP-E1A inh 1.
For CCOC(=O)N/N=C(\C)c1ccc(OC(F)F)cc1OC(F)F the results were TRPML1 inh 2, TRPV1 potentiator 9, D2 potentiator -2, Six1-Eya2 blk 4, TRPML1 agonist 0.2 and CtBP-E1A inh 12.
Screening Cc1cn(CC(=O)N(C)Cc2ccco2)c(=O)[nH]c1=O returned TRPML1 inh -7, D2 potentiator -4, Six1-Eya2 blk 1, TRPML1 agonist -0.5 and CtBP-E1A inh -21.
`OC(CSc1ccc(F)cc1)CN1CCN(c2ccccc2)CC1` (centres undefined) gave TRPML1 inh 48, TRPV1 potentiator 11, D2 potentiator -17, Six1-Eya2 blk -5, TRPML1 agonist -0.5 and CtBP-E1A inh -9.
O=C(NC(=S)Nc1ccc(N2CCCC2)cc1)c1ccccc1[N+](=O)[O-] was read as TRPML1 inh 1, TRPV1 potentiator 0, D2 potentiator 4, Six1-Eya2 blk -3, TRPML1 agonist 2.4 and CtBP-E1A inh -1.
For O=[N+]([O-])c1ccccc1S(=O)(=O)NC1CC2CCC1C2 (centres undefined) the results were TRPML1 inh 0, TRPV1 potentiator 8, D2 potentiator -2, Six1-Eya2 blk -8, TRPML1 agonist -0.7 and CtBP-E1A inh -1.
`COc1ccc(-c2nc(NC(=O)c3ccc(OCC(=O)Nc4ccc(F)cc4)c(OC)c3)sc2C)cc1` gave TRPML1 inh inconclusive, TRPV1 potentiator -9, D2 potentiator 6, Six1-Eya2 blk 115, TRPML1 agonist 0.5 and CtBP-E1A inh 129.
For COc1ccc2c(c1OC)C(=O)N1N=C(c3ccc(O)cc3)CC21 (centres undefined) the results were TRPML1 inh 16, TRPV1 potentiator -14, D2 potentiator -7, Six1-Eya2 blk -5, TRPML1 agonist 2.4 and CtBP-E1A inh -11.
Screening CN(Cc1ccccc1)C(=O)c1[nH]cnc1C(=O)Nc1ccccc1 returned TRPML1 inh -4, TRPV1 potentiator 0, D2 potentiator -18, Six1-Eya2 blk 4, TRPML1 agonist -0.1 and CtBP-E1A inh 4.
Cc1cccc(N2CCN(C(=O)c3ccc4nc[nH]c4c3)CC2)c1C was read as TRPML1 inh 14, TRPV1 potentiator 17, D2 potentiator -7, Six1-Eya2 blk -6, TRPML1 agonist -0.1 and CtBP-E1A inh -14.
Screening O=C(Nc1ncn[nH]1)c1ccccc1Br returned TRPML1 inh -8, TRPV1 potentiator inconclusive, D2 potentiator 0, Six1-Eya2 blk 2, TRPML1 agonist -1.0 and CtBP-E1A inh 4.
O=C1c2ccccc2C(O)(c2ccccc2)N1c1ccc([N+](=O)[O-])cc1Cl (centres undefined) was read as TRPML1 inh 12, D2 potentiator 7, Six1-Eya2 blk -11, TRPML1 agonist -0.6 and CtBP-E1A inh -2.
`CC(C)(C)OC(=O)N1CCCN(C(c2ccnc3ccccc23)c2nnnn2-c2ccc3c(c2)OCCO3)CC1` (centres undefined) gave Six1-Eya2 blk -13, TRPML1 agonist 1.9 and CtBP-E1A inh inconclusive.
`CC(=O)c1cccc(OCc2cc(C(=O)N3CC4C[C@@H]5CC3C[C@H](C4)C5)no2)c1` gave TRPML1 inh 26, TRPV1 potentiator -11, D2 potentiator -2, Six1-Eya2 blk -5 and TRPML1 agonist 0.2.
For Cc1ccc(-n2c(CNc3ccc(F)cc3)nnc2SCC(=O)NCc2ccco2)cc1 the results were TRPML1 inh 20, TRPV1 potentiator 19, D2 potentiator -10, Six1-Eya2 blk -3, TRPML1 agonist 0.8 and CtBP-E1A inh 2.
Screening CN(C)C1CN(Cc2cn(Cc3cccc(Cl)c3)nn2)S(=O)(=O)C1 (centres undefined) returned Six1-Eya2 blk -5, TRPML1 agonist -0.4 and CtBP-E1A inh 1.
`CCc1ccc(-c2c(C)sc(NC(C)=O)c2C(N)=O)cc1` gave TRPML1 inh -2, TRPV1 potentiator -5, D2 potentiator 10, Six1-Eya2 blk -3, TRPML1 agonist -0.7 and CtBP-E1A inh 1.

Next section (2 carried over from the part before).
Screening CN(C)C1CN(Cc2cn(Cc3cccc(Cl)c3)nn2)S(=O)(=O)C1 (centres undefined) returned Six1-Eya2 blk -5, TRPML1 agonist -0.4 and CtBP-E1A inh 1.
`CCc1ccc(-c2c(C)sc(NC(C)=O)c2C(N)=O)cc1` gave TRPML1 inh -2, TRPV1 potentiator -5, D2 potentiator 10, Six1-Eya2 blk -3, TRPML1 agonist -0.7 and CtBP-E1A inh 1.
Screening Cc1nnc(SCC(=O)NCC2CCCCC2)n(N)c1=O returned TRPML1 inh 28, TRPV1 potentiator -4, D2 potentiator 8, Six1-Eya2 blk 5, TRPML1 agonist 0.0 and CtBP-E1A inh -2.
`Cc1ncc(CN2CCC(N3CCC(C(=O)N4CCCC4)CC3)CC2)s1` gave TRPML1 inh 0, TRPV1 potentiator 11, D2 potentiator -2, Six1-Eya2 blk -2, TRPML1 agonist -0.6 and CtBP-E1A inh -3.
CCOc1ccc(C(=O)/C=C/c2cc(OC)c(OC)c(OC)c2)cc1 was read as TRPML1 inh -2, TRPV1 potentiator 10, D2 potentiator -20, Six1-Eya2 blk -21, TRPML1 agonist -1.1 and CtBP-E1A inh -12.
`CCCCOc1cccc(/C=C(\C#N)C(=O)NC2CC2)c1` gave TRPML1 inh 3, TRPV1 potentiator -10, D2 potentiator -5, Six1-Eya2 blk 0, TRPML1 agonist 1.3 and CtBP-E1A inh 4.
`CC(=O)NS(=O)(=O)c1ccc(NC(=O)CC(C)c2ccccc2)cc1` (centres undefined) gave TRPML1 inh 32, TRPV1 potentiator inconclusive, D2 potentiator 2, Six1-Eya2 blk 12, TRPML1 agonist 0.2 and CtBP-E1A inh 3.
Screening Cc1cc(C)c2nc(C)cc(Nc3ccc(C(=O)NCCO)cc3)c2c1 returned TRPML1 inh 0, D2 potentiator -9, Six1-Eya2 blk -8, TRPML1 agonist 0.5 and CtBP-E1A inh -22.
For COc1ccc(CSc2nc(C)cc(C)c2C#N)cc1 the results were TRPML1 inh -10, TRPV1 potentiator 4, D2 potentiator 1, Six1-Eya2 blk 28, TRPML1 agonist 3.0 and CtBP-E1A inh 32.
CC(=O)c1c(C)[nH]c(C(=O)OCC(=O)N2CCc3ccccc3C2)c1C was read as TRPML1 inh 8, TRPV1 potentiator -17, D2 potentiator 11, Six1-Eya2 blk -1 and TRPML1 agonist -1.2.
`C=CCNC(=O)CN1C(=O)c2cccc3cccc1c23` gave TRPML1 inh 19, TRPV1 potentiator 11, D2 potentiator 2, Six1-Eya2 blk 2, TRPML1 agonist 4.1 and CtBP-E1A inh 2.
`O=C(CNC(=O)c1ccco1)NCC(=O)OCc1cccc(C(=O)Oc2ccccc2)c1` gave TRPML1 inh -16, TRPV1 potentiator -3, D2 potentiator -3, Six1-Eya2 blk -3, TRPML1 agonist 1.5 and CtBP-E1A inh 0.
CCOC(=O)c1c(C)[nH]c(C(=O)N/N=C/c2ccc(OC)c(OC)c2)c1C was read as TRPML1 inh 8, TRPV1 potentiator 27, D2 potentiator 1, Six1-Eya2 blk -1 and TRPML1 agonist 0.8.
Screening Cn1c(SCc2ccccc2)nc(C(F)(F)F)cc1=O returned TRPML1 inh 2, TRPV1 potentiator 8, D2 potentiator 0, Six1-Eya2 blk 34, TRPML1 agonist 3.5 and CtBP-E1A inh 1.
`Cc1cc(C)cc(NC(=S)NCc2ccc(S(N)(=O)=O)cc2)c1` gave TRPML1 inh 0, TRPV1 potentiator 10, D2 potentiator -10, Six1-Eya2 blk 2, TRPML1 agonist -0.5 and CtBP-E1A inh -7.
Screening O=C1CCCC2=C1C(c1cn(-c3ccccc3)nc1-c1cccs1)c1c([nH]c(=O)[nH]c1=O)N2 (centres undefined) returned TRPML1 inh -11, TRPV1 potentiator 2, D2 potentiator 15, Six1-Eya2 blk 3, TRPML1 agonist 0.3 and CtBP-E1A inh 13.
Screening O=C(CCSC1=NCCCN1)c1ccc(F)cc1 returned TRPML1 inh 2, D2 potentiator 9, Six1-Eya2 blk -5, TRPML1 agonist 0.1 and CtBP-E1A inh 15.
O=C1c2cccc3cccc(c23)C(=O)N1CCN1CCN(C(=S)Nc2ccc(Cl)cc2)CC1 was read as TRPML1 inh 4, TRPV1 potentiator 11, D2 potentiator -22, Six1-Eya2 blk 7, TRPML1 agonist -0.5 and CtBP-E1A inh 2.
Screening O=S(=O)(c1ccc(Cl)cc1)c1snnc1-c1ccccc1 returned TRPML1 inh 14, TRPV1 potentiator -25, D2 potentiator -22, Six1-Eya2 blk 4, TRPML1 agonist 0.3 and CtBP-E1A inh 1.
For Cc1cc2cc(CNC(=O)c3cccc([N+](=O)[O-])c3)ccc2n1C the results were TRPML1 inh 44, TRPV1 potentiator -2, D2 potentiator -4, Six1-Eya2 blk -8, TRPML1 agonist 0.6 and CtBP-E1A inh -11.
Cc1cccc(CNC(=O)Cc2csc3ccccc23)c1 was read as TRPML1 inh 23, TRPV1 potentiator -16 and TRPML1 agonist 2.8.
`O=C(NCc1ccco1)C1CC(=O)N(c2ccc(Cl)cc2)C1` (centres undefined) gave TRPML1 inh 2, TRPV1 potentiator -11, D2 potentiator 1, Six1-Eya2 blk -10, TRPML1 agonist -0.2 and CtBP-E1A inh 3.
Screening COCCCN(C(=O)CCSc1ccc(F)cc1)c1c(N)n(Cc2ccccc2)c(=O)[nH]c1=O returned TRPML1 inh -1, TRPV1 potentiator 4, D2 potentiator -23, Six1-Eya2 blk 5, TRPML1 agonist -0.1 and CtBP-E1A inh 7.
Screening COc1cc(C(=O)N(Cc2cccc(Cl)c2)C2CCS(=O)(=O)C2)cc(OC)c1OC (centres undefined) returned TRPML1 inh -1, TRPV1 potentiator 7, D2 potentiator -11, Six1-Eya2 blk -4, TRPML1 agonist -1.1 and CtBP-E1A inh 10.
